Biofilm kill mix – clotrimazole potentiators killing C. albicans biofilm, primary screen, 4-compound mixtures. C. albicans biofilm persisters + clotrimazole, fluorescence viability; primary screen in compound mixtures of four per well. inhibition, % at 7.6 µM. 120,000 compounds, 0.02% hits. AID 1242, 2008;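 active = inhibition above 30.3% in the primary screen of four-compound pools, then above 30% when the compound was retested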;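 note: compounds exposed to preformed 24 h biofilms for 48 h; the number belongs to the whole pool; some results filed as inactive read as strong as hits; inactives centre near 12; 0% = biofilm with clotrimazole alone and 100% = kill control; retested singly at about 60 µM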
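Assay system: C. albicans biofilms / Medium: RPMI/MOPS medium, pH 7.0 / Schedule: biofilm formation 24 h, compound exposure 48 h, 37 °C / Measured by: Alamar Blue fluorescence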
The depositor's hits bear a star. Some of the compounds tested (hit frequency here may not be typical).

Compound | Biofilm kill mix
OC(COC(c1ccc(F)cc1)c1ccc(F)cc1)CN1CCc2ccccc2C1 (configuration not stated) | 6.6
O=C(COC(=O)C(O)c1ccccc1)c1ccc2c(c1)OCCO2 (configuration not stated) | 9.4
Cc1ccc(-c2cc(C(F)F)nc(S(C)(=O)=O)n2)cc1 | 9.6
COc1cccc2cc(C(=O)C3=C(O)C(=O)N(CCN(C)C)C3c3ccc(Cl)cc3)oc12 (configuration not stated) | 19.0
NNC(=O)COc1cccc(Oc2ccccc2)c1 | 14.7
C=C1CCN([C@H](C(=O)NCc2ccccc2)C(C)C)S(=O)(=O)c2ccccc21 | 9.2
Cc1cc(C)c(C(=O)/C=C/c2cccs2)c(=O)[nH]1 | 8.5
O=C(c1ccco1)N1CCN(Cc2cn[nH]c2-c2cccc3ccccc23)CC1 | 4.2
CCOc1ccc(N2C(=O)/C(=C/c3ccc(C)o3)N(C)C2=S)cc1 | 9.1
CC(C)CCN1CCN(Cc2nc(-c3ccc(F)cc3)cs2)CC1CCO (configuration not stated) | 3.2
Cc1nnc(SCC(=O)NNC(=O)c2ccc(Cl)cc2)n1CC1CCCO1 (configuration not stated) | 1.4
CCOc1ccc(Cn2c3ccc(OC)cc3c3nc4ccccc4nc32)cc1OC | 8.4
COc1cccc(-n2c(Cn3nc(C(F)F)cc3C(F)F)n[nH]c2=S)c1 | 7.5
Cc1cc(/C=N/NC(=O)c2ccc(O)cc2)c(C)n1C1CC1 | 13.7
Cc1cc(C(=O)CCl)c(C)n1-c1cccc(S(=O)(=O)N2CCOCC2)c1 | 12.2

(list continues)
Compound | Biofilm kill mix
CCCNS(=O)(=O)c1ccc(CCC(=O)N2CCCC2)cc1 | 19.7
O=C(c1ccc2c(c1)OCO2)C1CCCN(Cc2cccn2-c2cccnc2)C1 (configuration not stated) | 9.9
C=CCn1cc([N+](=O)[O-])nc1C | 7.8
Cc1cccn2c(=O)c(C=O)c(Sc3ncccn3)nc12 | -2.7
COc1ccc(C(CNC(=O)c2ccc(C)c(S(=O)(=O)N3CCCCC3)c2)N(C)C)cc1OC (configuration not stated) | 9.5
Nc1nc(SCC(=O)c2c(N)n(Cc3ccccc3)c(=O)[nH]c2=O)n[nH]1 | 15.4
CCOC(=O)Nc1ccc(NC(=O)c2ccccc2F)cc1 | 6.4
O=C(CSc1nnc(-c2ccncc2)o1)N1CCc2ccccc2C1 | 13.5
CN1CCCN(C(c2ccccc2)c2ccc(Cl)cc2)CC1 (configuration not stated) | 9.3
Cc1ccc(-c2n[nH]c(=S)n2/N=C\c2ccco2)cc1 | 8.1
CCc1nc2ccc(C(=O)O)cc2nc1CC | 11.9
N#Cc1c(NC(=O)C2CC(Cl)=CCC2C(=O)O)sc2c1CCCC2 (configuration not stated) | -0.3
c1ccc(-c2csc3ncnc(N4CCOCC4)c23)cc1 | 13.4
CC(C)c1onc(C(=O)NC2CCCC2)c1[N+](=O)[O-] | 26.7
C[C@@H]1CC=C[C@H]2[C@H]1C(=O)N(Cc1ccccc1)[C@H]2c1ccc(Br)cc1F | 13.2

(next part)
Compound | Biofilm kill mix
N#Cc1c(Cl)cccc1N1CCC(C(N)=O)CC1 | 8.5
CN(c1ccc(C(=O)NCCSC(C)(C)C)cc1)S(=O)(=O)c1ccccc1 | 1.4
Cc1ccc2c(c1)c(N=NC(N)=O)c(O)n2C | -6.7
O=C(Cc1ccc([N+](=O)[O-])cc1)N/N=C/c1ccco1 | 19.6
COc1ccc(Nc2cc(C)nc(N)n2)cc1 | 19.8
Cc1ccc(S(=O)(=O)N2CCN(c3ccc([N+](=O)[O-])cn3)CC2)cc1 | 13.3
Cn1c(CN2CCOCC2)nc2cc(NC(=O)COc3ccc([N+](=O)[O-])cc3)ccc21 | 4.3
CCOC(=O)c1c(NC(=O)c2ccnn2C)sc(C)c1C | 11.2
COc1cc(CNc2nc3ccccc3[nH]2)cc(OC)c1OC | 9.3
NC(=O)c1c(NC(=O)c2ccc(S(=O)(=O)N3CCOCC3)cc2)sc2c1CCCCC2 | -1.1
CCn1ccnc1CN1CCCC(C(=O)c2ccc3cc(OC)ccc3c2)C1 (configuration not stated) | 15.8
COc1ccc(CN(C)CC(=O)Nc2cc3oc4ccccc4c3cc2OC)c(OC)c1 | 5.4
Fc1ccccc1-c1nc(-c2cnccc2C(F)(F)F)no1 | 18.8
CCOc1ccc(-c2nnc(-c3ccccc3)o2)cc1 | 14.3
C#CCOc1ccc(/C=C2\SC(=S)N(Cc3cccnc3)C2=O)cc1 | -1.8

Later entries:
Compound | Biofilm kill mix
Cn1[nH]c(-c2ccccc2)c(/C=N/O)c1=O | 17.4
CC(=O)c1ccc(N2CCN(C(=O)/C=C/c3cccs3)CC2)cc1 | 9.5
Fc1ccc(CCNC(=S)Nc2ccc(F)cc2)cc1 | 6.0
CC(C)(C)c1nc(SCC(=O)NCc2cccs2)c2ccccc2n1 | 16.4
CSc1ccc(CN(C)CC(=O)NCc2ccccc2)cc1 | 8.1
COc1cccc(C(=O)Oc2ccccc2/C=C\C(=O)c2cc3ccccc3o2)c1 | 9.6
O=C(CN1CCN(c2ccccc2F)CC1)NC(=O)NCc1ccccc1 | 16.5
O=C(CN1C(=O)c2ccc([N+](=O)[O-])cc2C1=O)NCc1ccco1 | -3.0
CCOC(=O)c1sc2nc(CSc3ccccc3)[nH]c(=O)c2c1C | 15.2
O=C1NCCN(Cc2ccoc2)C1CC(=O)N(Cc1ccccc1)CC1CCC1 (configuration not stated) | 4.9
C=CCn1cn[nH]c1=S | 11.6
COc1ccc(-c2[nH]ncc2CN(C)Cc2cc(C)[nH]n2)c(F)c1 | 7.5
COc1cccc(NC(=O)Cn2c(CCC(=O)O)ccc2-c2ccccc2)c1 | 32.1
O=c1c(/C=N/O)coc2ccc(Cl)cc12 | 14.7
N#Cc1c(C(F)(F)F)cc(-c2cccs2)nc1SCC(=O)O | 9.8

The results go on:
Compound | Biofilm kill mix
COc1ccc(-c2ccc(/C=C3/C(=N)N4C=CSC4=NC3=O)o2)c([N+](=O)[O-])c1 | 10.5
CCCc1[nH]n(-c2nc3ccccc3s2)c(=O)c1C=NCCCN(CC)CC | 25.9
COc1ccc(-c2nnc(SCC(=O)NCCc3ccc(S(N)(=O)=O)cc3)o2)cc1OC | 20.4
CS(=O)(=O)C1=NSC2=NC(=O)/C(=C\c3cccn3-c3ccc(Cl)cc3)C(=N)N21 | 19.0
CC(O)[C@H]1CNC(=S)N1CCc1cccc(F)c1 (some centres not stated) | 13.4
CC(C)(C)C(=O)NCC12C=CC(O1)C1C(=O)N(c3ccccc3)C(=O)C12 (configuration not stated) | 11.1
CC(C)(C)OC(=O)[C@H](Cc1ccccc1)NC(=O)c1nc[nH]c1C(=O)NCc1ccccc1 | 11.2
O=C(NC(=S)Nc1ccccc1O)c1ccccc1Cl | 14.4
CN(C)c1ccc(N=Nc2ccccc2C(=O)OCC(=O)NCC2CCCCC2)cc1 | 12.2
CN(CC(=O)Nc1ccc(Cl)c(Cl)c1)Cc1nnc(-c2ccc(F)cc2)o1 | 11.2
O=C(Nc1c(-c2ccccc2)nc2ncccn12)c1cc2ccccc2oc1=O | 15.0
O=C(NC1CC1)c1ccc2c(c1)C1C3CCC(C3)C1C(c1ccccc1)N2 (configuration not stated) | 12.3
COc1ccc(-c2c[n+](CC(=O)OC3CC(C)CCC3C(C)C)c3n2CCC3)cc1 (configuration not stated) | 17.6
COc1ccc(-c2nn(-c3ccccc3)cc2/C=C(\C#N)S(=O)(=O)c2ccccc2)cc1OC | 10.8
CCN1C(=O)/C(=C/N2CCc3ccccc3C2)SC1=S | 5.2

(listing goes on)
Molecule,Biofilm kill mix
O=C(c1ccco1)N1CCN(C(=O)N2CCCCC2)CC1,12.3
CCN(CC(=O)Nc1ccc(Br)c(C)c1)CC(=O)NC(C)C,4.3
COc1ccc(CCC(C)Nc2ccccc2F)cc1 (configuration not stated),11.9
O=C(O)c1cccnc1Sc1ccc(Cl)cc1,-11.1
CCOC(=O)c1cn(-c2c(Cl)cccc2Cl)c2cc(Cl)c([N+](=O)[O-])cc2c1=O,8.0
CC(C)CC1c2[nH]c3ccccc3c2CCN1C(=O)C1CCOCC1 (configuration not stated),3.3
CCn1cc(CN2CCCC(CO)(Cc3cccc(Cl)c3)C2)cn1 (configuration not stated),19.7
COc1ccc(C2/C=C\CN(C(=O)C3CCCC3)CC(=O)N2Cc2ccc(F)cc2)cc1 (configuration not stated),13.3
OC1(C#CCN2CCCC2)c2ccccc2-c2ccccc21,11.4
O=C(NCCc1ccccc1)C(=O)NCc1ccncc1,14.6
O=C(O)CCCN(Cc1cccc(Br)c1)S(=O)(=O)c1ccc(Br)cc1,13.9
CC(OC(=O)CN1C(=O)C2C3C=CC(C4CC34)C2C1=O)C(=O)c1ccccc1 (configuration not stated),24.9

The list continues.
Molecule,Biofilm kill mix
Fc1ccccc1CNC(=S)Nc1cccc(C(F)(F)F)c1,0.0
COc1ccc(/C=N/NC(=O)Nc2ccc3nsnc3c2)c(OC)c1,2.7
Cc1ccc(Nc2c(-c3ccccn3)nc3ccc(C)cn23)cc1,40.0
CN(C)[C@@H]1C(=O)C(C(N)=O)=C(O)[C@@]2(O)C(=O)C3=C(O)c4c(O)ccc(Cl)c4[C@@H](O)[C@H]3C[C@@H]12,7.4
CC(O)c1nc2ccccc2n1Cc1ccc([N+](=O)[O-])cc1 (configuration not stated),10.7
Cc1ccc(S(=O)(=O)N2CCOC2CNC(=O)C(=O)NCCc2c[nH]c3ccccc23)cc1 (configuration not stated),8.0
Fc1ccccc1NC(=S)N1CCC(c2ccccc2)C1 (configuration not stated),11.9
O=C(NCC1CCCO1)/C(=C/c1ccccc1)NC(=O)c1ccccc1 (configuration not stated),17.1
O=C(CN1CCN(c2nc(-c3ccccc3)cs2)CC1)NNC(=O)c1ccco1,8.7
O=C(/N=C1/c2ccccc2CN1c1ccccc1)Nc1ccccc1,5.7
CCCOc1ccc(N2C(=O)CC(SCc3nc4ccccc4[nH]3)C2=O)cc1 (configuration not stated),27.4
COc1cc(CN(C2CCCCC2C)S(=O)(=O)c2ccc(S(=O)(=O)NC3CC3)cc2)cc(OC)c1OC (configuration not stated),10.6

Later entries
Molecule,Biofilm kill mix
Cc1ccc(C(=O)N2CC(C)SC2=Nc2cccc(S(=O)(=O)N(C)C)c2)cc1 (configuration not stated),5.1
NC1=NC(=Nc2cccc(S(N)(=O)=O)c2)c2ccccc21,27.4
COc1ccc(OCCC(=O)NC2CCCCC2)cc1,7.2
CC(C)COc1nc2c(c(=O)n(C)c(=O)n2C)n1C,0.3
COc1ccc(/C=N/NC(=O)C(=O)/C=C2\NC3(CCCC3)Cc3ccccc32)cc1,11.6
Cc1ccc(OCc2nnnn2-c2ccccc2)cc1,-8.9
Cc1ccc(S(=O)(=O)N(C)C)cc1NC(=O)/C=C/c1cccs1,8.3
COC(=O)c1ccc(-n2cnc3ccccc32)nc1,0.4
C#Cc1ccc(C(=O)NCc2ccc(N3CCCC3=O)cc2)cc1,7.9
CCOC(=O)C1CCCN(c2oc(-c3ccc(F)cc3)nc2C#N)C1 (configuration not stated),17.6
O=C(Nc1ccc2c(c1)OCCO2)c1ccccn1,18.1
C=CCn1c(C)cc(C2=NNC(=Nc3ccc(C)cc3)SC2)c1C,12.3

Additional structures follow.
Molecule,Biofilm kill mix
O=C(NCCCN1CCOCC1)c1cccnc1SCc1ccccc1Cl,34.0
O=C(Nc1ccc(F)cc1)Nc1ccc([N+](=O)[O-])cn1,9.5
OCCC1CN(Cc2cccc3nccnc23)CCN1Cc1ccc(F)cc1 (configuration not stated),15.1
O=C(/C=C/c1ccc2c(c1)OCO2)Nc1nc2ccc(F)cc2s1,18.9
Cc1ccc(/C=N/NC(=O)c2cccc(S(=O)(=O)Nc3cccc(Cl)c3)c2)o1,14.5
O=C1c2ccccc2C(=O)N1CCCCSc1nc2ccccc2c(=O)n1CCCN1CCOCC1,10.6
O=C(COC(=O)CC1CCCC1)Nc1ccc(OC(F)F)cc1,14.4
CCOC(=O)C1C(c2cccnc2)NC(=O)NC1(O)C(F)(F)F (configuration not stated),14.3
CCCCn1nnc(NC(=S)NC(=O)c2cccs2)n1,3.4
COC(=O)C1=C(C)N(c2ccc(Cl)cc2)/C(=C/c2cccs2)C1=O,14.4
CCOc1cc(/C=N/NC(=O)c2ccncc2)ccc1OS(C)(=O)=O,3.5
O=C(CCC(=O)NCCO)NCCO,14.6

The results go on:
Molecule,Biofilm kill mix
O=C(CN1C(=O)c2cccc3cccc1c23)Nc1ccccc1C(=O)NCc1ccco1,4.4
CCn1c(O)c(/C=N/NC(=O)c2ccncc2)c(=O)n(CC)c1=S,9.2
COCCSc1nnc(NC(=O)c2ccc(OC)c([N+](=O)[O-])c2)s1,16.4
CSCCC(NS(=O)(=O)c1ccc(Cl)cc1)C(=O)OCc1cccc(Cl)c1 (configuration not stated),9.9
CCCCNC(=O)CCC(=O)NNc1nc2ccccc2c2nc(C)nn12,5.0
CC(NC(=O)Cc1ccccc1F)c1ccc(F)cc1 (configuration not stated),8.1
C=CCOc1ccc(CNc2nccs2)cc1OC,13.8
COc1cccc(CNCC(=O)Nc2ccc(N3CCOCC3)cc2)c1,13.0
Nc1nc2nc(-c3ccc(F)cc3)cc(C(F)(F)F)n2n1,6.1
COc1cccc(CNC(=O)CCC2CCCN(C(=O)c3cc(C4CC4)[nH]n3)C2)c1 (configuration not stated),12.3
COC(=O)/C=C(\C)N=Nc1c(O)[nH]c2ccccc12,7.9

Fetched by compound from the list above (six):
Molecule,Biofilm kill mix
COc1cccc(C(=O)Oc2ccccc2/C=C\C(=O)c2cc3ccccc3o2)c1,9.6
O=C(CN1CCN(c2ccccc2F)CC1)NC(=O)NCc1ccccc1,16.5
CCc1nc2ccc(C(=O)O)cc2nc1CC,11.9
O=C(NCC1CCCO1)/C(=C/c1ccccc1)NC(=O)c1ccccc1 (configuration not stated),17.1
N#Cc1c(Cl)cccc1N1CCC(C(N)=O)CC1,8.5
CCOc1ccc(Cn2c3ccc(OC)cc3c3nc4ccccc4nc32)cc1OC,8.4

Assay outcomes (PubChem BioAssay)
